Bioassay records as filed in PubChem BioAssay.
VDR inhibitor = inhibitors of human vitamin D receptor; P11473; VDR-SRC2-3 peptide fluorescence polarization, 2 h; Potency, µM, for the others: max response, negative = inhibition, usual class: inhibitors; 0.93% of 400,000 active; active = well fitted inhibition curve with a large enough effect; inconclusive = small, poorly fitted or top-dose-only effect, or another doubt; inactive = no such curve, though single readings can be large or run the other way; also: series mostly up to about 120 µM
Target sequence (P11473 whole entry, looked up): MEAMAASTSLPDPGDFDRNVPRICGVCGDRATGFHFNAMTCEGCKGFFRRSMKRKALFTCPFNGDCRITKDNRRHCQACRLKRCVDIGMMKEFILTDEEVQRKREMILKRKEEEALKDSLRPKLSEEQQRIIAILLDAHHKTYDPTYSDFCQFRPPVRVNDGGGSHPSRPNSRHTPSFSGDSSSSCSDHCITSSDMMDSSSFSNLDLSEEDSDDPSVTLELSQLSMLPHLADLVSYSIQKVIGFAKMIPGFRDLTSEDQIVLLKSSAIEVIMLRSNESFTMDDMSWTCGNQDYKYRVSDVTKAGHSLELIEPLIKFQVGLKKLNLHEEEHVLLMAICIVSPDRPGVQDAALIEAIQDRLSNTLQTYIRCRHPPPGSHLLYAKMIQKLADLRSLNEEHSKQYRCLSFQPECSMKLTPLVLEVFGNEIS
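Compounds are added to VDR with labelled SRC2-3 coactivator peptide and held 2 h at room temperature. Inhibition of the VDR–peptide interaction is then read as a change in fluorescence polarization.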
* marks the source's active call; other numbers are inactive results; ? = inconclusive; & = joins results of further samples. % is scaled to controls: 0 for no effect and ±100 for the full control effect; potency is read from the fitted curve at half-maximal effect. A portion of the library; the hit share may differ from the screen's.

mol | VDR inhibitor
CS(=O)(=O)Nc1ccc(S(=O)(=O)N2CCCCCC2)cc1 | -6.2%
COc1cc2nc(CN3CCN(S(=O)(=O)c4ccc(C)c(C)c4)CC3)[nH]c(=O)c2cc1OC | 12.3%
C=CCn1c(SCc2nc3cc(C(F)(F)F)ccc3c(=O)[nH]2)nc2sc(CC)cc2c1=O | ?
CCNC(=O)/C=C1\NC(C)(C)Cc2c1ccc1ccccc21 | -13.5%
CC(=C\C(=O)O)/C(=C/c1ccco1)C(=O)O | -4.7%
Cc1ccc(S(=O)(=O)Nc2cc(-c3nn(C)c(=O)c4ccccc34)ccc2N2CCOCC2)cc1 | -15.0%
CCOC(=O)c1oc2ccc(/C=N/O)c(Cl)c2c1C | 8.5%
Cc1nn(Cc2ccc(Cl)cc2)c(C)c1NC(=O)CSc1nc2c(c(C(F)(F)F)n1)CCc1ccccc1-2 | -11.0%
N/C(Cc1cccc2ccccc12)=N\O | 8.0%
CCOC(=O)c1sc(C)c2c(=O)n(CC)nnc12 | 21.0%
CC(C)Cc1nnc(NC(=O)c2cc3c(s2)CCC3)s1 | 14.6%
CC(=O)Nc1ccc(S(=O)(=O)NCc2ccc3c(c2)CCN3C(C)=O)cc1 | -0.8%
CCn1c(SCC(=O)Nc2ccc3c(c2)OCCO3)nnc1C(C)C | ?
Cc1cc(C)cc(OCC(=O)N(Cc2ccc(C)o2)C2CCS(=O)(=O)C2)c1 (stereo not drawn) | 8.3%
CC(OC(=O)Cc1c(F)cccc1Cl)C(=O)NCCC1=CCCCC1 (stereo not drawn) | 14.9%
COC(=O)c1ccc(S(=O)(=O)N2Cc3ccccc3C2)cc1 | 4.8%
C[C@@H](C(=O)Nc1ccc2ccccc2c1)[C@H]1C[C@]1(C)[C@H](N)c1ccccc1 | 0.3%
Cc1ccc(Cl)c(OCC(=O)OCC(=O)NC2CCCc3ccccc32)c1 (stereo not drawn) | 15.4%
COc1cc(CNCCc2c[nH]c3ccccc23)ccc1OCc1ccc(F)cc1 | -6.2%
CCOc1ccc(N2C(=O)c3cccnc3C2Nc2ccc(C)c(C)c2)cc1 (stereo not drawn) | -0.4%
Cc1cccc(-n2c(C)cc(C(=S)N3CCOCC3)c2C)c1C | ?
CC1CCN(C(=O)/C(=C\c2ccccc2F)NC(=O)c2ccccc2)CC1 | -6.8%
Cc1ccc2nc(N(Cc3cccnc3)C(=O)c3cccs3)sc2c1 | 6.5%
C/C=C/c1ccc(OCCCCN2CC(C)CC(C)C2)c(OC)c1 (stereo not drawn) | -9.3%
CCOc1ccc(-c2nc(N)ncc2Oc2ccccc2Br)c(O)c1 | -9.6%

Not a retest: 2 of the compounds above.
mol | VDR inhibitor
CS(=O)(=O)Nc1ccc(S(=O)(=O)N2CCCCCC2)cc1 | -6.2%
COc1cc2nc(CN3CCN(S(=O)(=O)c4ccc(C)c(C)c4)CC3)[nH]c(=O)c2cc1OC | 12.3%

The main list resumes; the 2 compounds before the break are reprinted first.
mol | VDR inhibitor
C/C=C/c1ccc(OCCCCN2CC(C)CC(C)C2)c(OC)c1 (stereo not drawn) | -9.3%
CCOc1ccc(-c2nc(N)ncc2Oc2ccccc2Br)c(O)c1 | -9.6%
Cc1cccc(N2CCN(C(=O)c3ccc(NC(=O)c4nsc5ccccc45)cc3)CC2C)c1 (stereo not drawn) | 8.1%
CN(C)/N=C1\CCS(=O)(=O)c2sccc21 | 7.4%
O=C(COC(=O)c1ccc([N+](=O)[O-])o1)NCc1ccccc1 | -9.5%
S=C(NCc1ccco1)Nc1ccc(Br)cc1Cl | 0.2%
O=c1[nH]c2ccc(NCc3ccc(-c4ccccc4)o3)cc2[nH]1 | 13.8%
CN1C(=O)CC(N2CCN(CC(N)=O)CC2)C1=O (stereo not drawn) | -21.9%
O=C(/C=C/c1c(F)cccc1Cl)c1ccc(F)cc1 | 44.7µM*
COc1ccc(-c2cnn3cc(-c4cccc(Cl)c4)cnc23)cc1 | -5.5%
O=C(Nc1ccon1)Nc1cccc(Cl)c1Cl | -11.1%
COC(=O)c1c(NC(=O)CCCOc2cccc(C)c2)sc2c1CCC2 | -2.1%
COc1cc(/C=N/Nc2ncc(C(F)(F)F)cc2Cl)cc(OC)c1O | 14.1%
Cc1c(NCc2nc3ccccc3[nH]2)c(=O)n(-c2ccccc2)n1C | 12.4%
O=C(NCCc1cccc(F)c1)/C(=C/c1cccnc1)NC(=O)c1ccccc1 | -10.6%
O=C(COC(=O)CSc1nnc(-c2ccc(Cl)cc2)o1)Nc1cc(Cl)ccc1Cl | 11.4%
O=C1NCCCCC1NS(=O)(=O)c1ccc(Cl)cc1 (stereo not drawn) | -4.6%
Cc1oc(/N=C/c2ccccc2)c(C#N)c1C | -5.8%
CCOC(=O)c1ccc(N2C(=O)CC(Sc3nc(C)cc(C)n3)C2=O)cc1 (stereo not drawn) | -4.5%
COc1ccc(Nc2nnc(Cc3ccncc3)c3ccccc23)c(OC)c1 | -4.2%
COc1cc(Cl)c(C)cc1NC(=O)c1ccccc1-n1cnnn1 | ?
COc1ccc(C)cc1NC(=O)C(NS(=O)(=O)c1cccc2nsnc12)c1ccccc1 (stereo not drawn) | -15.2%
O=C(NNc1ccccn1)C(=O)NNS(=O)(=O)c1ccc(F)cc1 | 10.9%
COc1ccc(OC)c(CN2CCN(C(=O)c3ccc(S(=O)(=O)Nc4ccccc4F)cc3)CC2)c1 | 9.2%
CCCCNC(=O)CNC(=S)N(Cc1ccccc1F)C1CCCCC1 | -1.9%
O=c1[nH]c(SCc2ccccc2F)nc2ccccc12 | -6.7%
CCN(CC(=O)Nc1ccc2c(c1)OCCO2)C(=O)c1ccc(C(F)(F)F)cc1 | -5.6%
C[C@H](NC(=O)c1cc2cc(Cl)ccc2n1C)C(=O)N[C@@H](C(=O)O)c1ccccc1 | -6.8%
O=C(NCCCn1ccnc1)c1cc(C(=O)C2CCCCC2)c[nH]1 | 9.7%
COc1ccc(CCNC(=O)COc2coc(CN3c4ccccc4CC3C)cc2=O)cc1OC (stereo not drawn) | -16.6%
CCCCN(C)C(=O)CSc1nc2ccccc2nc1Cc1ccc(C)cc1 | 12.3%
O=C(Cn1c(SCc2cccc(F)c2)nc2ccncc21)Nc1ccc(Cl)cc1F | 10.6%
Cc1ccc(S(=O)(=O)N2CCOCC2)cc1C(=O)OC1CCOC1=O (stereo not drawn) | -9.2%
Oc1ccccc1Oc1ncc(Br)c(Cl)n1 | 2.7%
Cc1sc(NC(=O)C2CC(Cl)=CCC2C(=O)O)c(C#N)c1C (stereo not drawn) | -5.7%
Cc1ccc(S(=O)(=O)N2CCN(C(=O)COC(=O)CCOc3ccc(C(C)(C)C)cc3)CC2)cc1 | -14.7%
CC1CN(c2ccc([N+](=O)[O-])cc2C#N)CC(C)O1 (stereo not drawn) | -6.5%
COCCn1c(C23CC4CC(CC(C4)C2)C3)n[nH]c1=S | -12.4%
COc1ccc(CNC(=O)CCN2C(=O)[C@@H]3Cc4ccccc4CN3C2=O)cc1 | -1.0%
CCOc1ccc(Cc2nnc(SCC(=O)Nc3ccccc3)n(N)c2=O)cc1 | 4.6%
O=C(Nc1ccc(Br)cc1F)c1ccc2nsnc2c1 | ?
COC(c1ccccc1)c1nnc(CCC(=O)N2CCN(CCOc3ccccc3)CC2)o1 (stereo not drawn) | 5.2%
Cc1ccc(N=C2NC(=O)/C(=C/c3cccn3C)S2)cc1C | -0.8%
CSc1nc(-c2ccc(F)cc2)cc(=O)[nH]1 | -6.2%
COc1cccc2sc(NNC(=O)c3nc4ccccc4s3)nc12 | ?
CCCCn1c(N)c(N(CC(C)C)C(=O)c2c(CC)noc2C)c(=O)[nH]c1=O | 15.7%
CS(=O)(=O)Nc1ccc(C(=O)N2CCN(c3ccccc3F)CC2)cc1 | 9.7%
CCCCNC(=S)NNC(=O)c1c(C)nc2ccccn12 | -19.7%
NS(=O)(=O)c1ccc(CCNCc2cc(Br)ccc2OCc2ccccc2F)cc1 | 9.5%
CC(C)Oc1ccccc1-c1nc(SCC(=O)c2ccc(F)cc2)n[nH]1 | -6.4%
CC(=O)CSc1ncnc2c1cnn2-c1ccccc1 | ?
O=[N+]([O-])c1cc(Br)c2nsnc2c1N1CCOCC1 | -4.9%

Entries from the list above that have a cyano group (3):
mol | VDR inhibitor
Cc1oc(/N=C/c2ccccc2)c(C#N)c1C | -5.8%
Cc1sc(NC(=O)C2CC(Cl)=CCC2C(=O)O)c(C#N)c1C (stereo not drawn) | -5.7%
CC1CN(c2ccc([N+](=O)[O-])cc2C#N)CC(C)O1 (stereo not drawn) | -6.5%

(list continues)
mol | VDR inhibitor
CCCCCn1c(N(C)Cc2ccccc2)nc2c1c(=O)[nH]c(=O)n2C | -2.1%
COc1ccccc1C(=O)NCCC(=O)N1CCN(S(=O)(=O)c2cccc(Cl)c2)CC1 | -25.0%
Cc1ccc(-c2nc(NC(=O)c3nn(C)cc3[N+](=O)[O-])sc2C)cc1C | -6.9%
CCCCNc1nc2ccccc2n1CC(=O)N1CCc2ccccc2C1 | -3.9%
O=C1c2ccccc2NC(c2ccccn2)N1c1ccc(Cl)cc1 (stereo not drawn) | -1.4%
Cc1cc(NC(=O)Cn2nnc(-c3ccccc3NC(=O)c3ccccc3F)n2)no1 | -12.3%
Cc1ccc(/C=N/NC(=O)C(NC(=O)c2ccccc2)c2n[nH]c(=O)c3ccccc23)cc1 (stereo not drawn) | 4.2%
Cc1cc(Oc2ccccc2)nc(OCC#N)n1 | 3.5%
N#Cc1c(N)nc(N)nc1Nc1ccc(Br)cc1 | 10.1%
O=C(O)CCc1ccc(-c2ccc(Br)cc2)n1-c1cccc(O)c1 | ?
CCOC(=O)Nc1sc(NS(=O)(=O)c2ccccc2)nc1C | -10.3%
COc1ccc(C(c2c(O)nc(SC)n(C)c2=O)c2c(O)nc(SC)n(C)c2=O)cc1O | -20.0%
O=C(NCc1ccco1)c1ccc2c(=O)n(CCC3=CCCCC3)c(=O)[nH]c2c1 | -4.9%
CCOC(=O)Nc1ccc2c(c1)N(C(=O)N1CCN(C)CC1)c1ccccc1CC2 | -3.2%
O=C(NC1CCN(C(=O)Nc2ccc(F)cc2)CC1)c1ccccc1F | 16.0%
Cc1ccnc(NC(=O)CCC(=O)N(CC(=O)NCCc2ccccc2)Cc2ccco2)c1 | -14.9%
C[C@]12CCC[C@H](O1)[C@H]([C@@H](O)c1ccccc1)O2 | -15.1%
COc1cc(Cl)ccc1NC(=S)N(CCN(C)C)C(C)c1ccncc1 (stereo not drawn) | ?
O=c1cc(O)c(-c2ccccc2)c(Cl)[nH]1 | 4.9%
COC(=O)CSc1nc(-c2ccccc2)cc(-c2ccco2)c1C#N | -2.0%
Cc1ccc(C2N3CC4([N+](=O)[O-])CN2CC([N+](=O)[O-])(C3)C4(C)C)cc1 (stereo not drawn) | -15.4%
CCn1cc(C(=O)N[C@@H](CCSC)C(=O)NC(C)(C)CO)c(=O)c2cc3c(cc21)OCO3 | -18.9%
O=C(O)c1cn(C2CCCCC2)c2ccccc2c1=O | -4.9%
CCC(C(=O)NCCc1c[nH]c2cc(OC)ccc12)c1ccccc1 (stereo not drawn) | -10.3%
CCCOc1ccccc1NC(=O)c1ccc(N)cc1 | 2.1%
O=C(O)CNC(=O)C(CS)Cc1ccccc1 (stereo not drawn) | -8.6%&-4.2%
CCSC(=O)N=Nc1ccc(O)cc1 | ?
O=C(Nc1cc(F)ccc1F)C1CCN(C(=O)c2cnn(-c3ccccc3)c2-n2cccc2)CC1 | 7.9%
CCCOc1ccc(NC(=O)CC2C(=O)N(C)C(=S)N2Cc2ccc3c(c2)OCO3)cc1 (stereo not drawn) | 23.9%
O=S1(=O)C=CC(c2ccccc2)C1 (stereo not drawn) | 4.1%
CCN1CCc2c(OCc3ccccc3)cccc2C1=O | -29.7%
COc1ccc(-c2ccc(SCC(=O)NC3CCCC3)nn2)cc1OC | -19.1%
Cc1cccc(CC2CC(=O)N(c3ccc([N+](=O)[O-])cc3)C2=O)c1 (stereo not drawn) | -9.0%
COc1ccc(Cn2c(=O)[nH]c3cc(C(=O)N4CCN(c5ccc(C(C)=O)cc5)CC4)ccc3c2=O)cc1 | -5.6%
Cc1cc(C)cc(OCC(=O)N(Cc2ccccc2)C2CCS(=O)(=O)C2)c1 (stereo not drawn) | 8.7%
COc1ccc(C(C)=O)cc1COc1ccc(Cl)cc1Cl | -6.3%
CCc1nc(-c2ccc(-c3ccc(OC)cc3)nc2OC)no1 | -2.7%
CCC(C)NC(=O)c1cc(C)no1 (stereo not drawn) | 10.8%
CCCCOc1cccc(/C=N/NC(=O)c2csc(C)c2C)c1 | 0.2%
O=C(O)CCCCCCNC(=O)c1cncc(O)c1 | -6.1%
CCOC(=O)N1CCC(Nc2c(NCCCN(CC)c3cccc(C)c3)c(=O)c2=O)CC1 | 2.4%
COc1ccc(CC(=O)OCC(=O)c2ccc[nH]2)cc1 | -0.3%
COc1ccc(NC(=O)N2CCCC3(CCN(C(=O)c4ccco4)CC3)C2)cc1 | 3.0%
CC(OC(=O)c1ccc(Cl)nc1)C(=O)NC(C)(C)C (stereo not drawn) | 5.6%
CCOC(=O)N1CCN(C(=O)c2ccc(N3C(=O)c4ccccc4C3=O)cc2)CC1 | -4.2%
O=C(Nc1cc(S(=O)(=O)N2CCOCC2)ccc1N1CCOCC1)c1c(F)cccc1Cl | -4.5%
CS(=O)(=O)c1ccc(Cl)c(NC(=O)COC(=O)CCN=C2NS(=O)(=O)c3ccccc32)c1 | -1.8%
OCC1CCCN(c2ncnc3scc(-c4ccccc4)c23)C1 (stereo not drawn) | 5.7%
CC1(c2ccccc2)NC(=O)N(CC(=O)N(CC(=O)Nc2ccccc2C(F)(F)F)Cc2ccco2)C1=O (stereo not drawn) | -2.9%
